PV pol inh: poliovirus RdRp elongation inhibitors, primary screen, biochemical, fluorescence polarization, total intensity. Genome polyprotein (Poliovirus type 1 (strain Mahoney)), P03300. poliovirus polymerase elongation; hits give low values. % elongation, % (compound at 16.7 µg/mL). 0.66% of 150,000 active; in the data active = % elongation below about 90%; also: some results filed as inactive read as strong as hits
Target sequence (P03300 1749-2209 limits assumed): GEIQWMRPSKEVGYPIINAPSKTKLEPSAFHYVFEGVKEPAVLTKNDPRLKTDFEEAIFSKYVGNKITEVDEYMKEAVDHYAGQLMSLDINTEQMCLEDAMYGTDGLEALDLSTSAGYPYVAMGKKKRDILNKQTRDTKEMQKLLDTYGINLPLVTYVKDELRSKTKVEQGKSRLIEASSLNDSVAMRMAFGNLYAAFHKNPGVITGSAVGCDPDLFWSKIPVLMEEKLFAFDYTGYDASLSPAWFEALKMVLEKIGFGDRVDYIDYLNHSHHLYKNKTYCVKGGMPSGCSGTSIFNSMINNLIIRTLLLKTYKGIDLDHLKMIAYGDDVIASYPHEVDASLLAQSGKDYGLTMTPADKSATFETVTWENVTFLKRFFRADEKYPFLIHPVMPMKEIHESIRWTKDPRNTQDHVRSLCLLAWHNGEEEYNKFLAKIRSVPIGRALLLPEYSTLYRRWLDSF
PV pol inh intensity: recorded beside PV pol inh, whose call it bears; % elongation; measured here: total intensity read-out; formula for this scale not given here;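 total fluorescence in place of polarization; lower means less elongation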
The depositor's hits bear a star. Some of the compounds tested; rates above refer to the full screens.

For CCc1ccc(CNC(=O)C2CCCN(S(=O)(=O)c3ccc4c(ccn4C)c3)C2)cc1 (stereo unspecified) the results were PV pol inh 100.0 and PV pol inh intensity 109.0.
For Fc1ccc(-c2ccc(CNCCSc3nnnn3-c3ccccc3)o2)cc1 the results were PV pol inh 113.0 and PV pol inh intensity 111.0.
For CC(C)(C)C1CCc2nc(NC(=O)Cc3ccc(Cl)cc3)sc2C1 (stereo unspecified) the results were PV pol inh 103.0 and PV pol inh intensity 103.0.
For Cc1nn(C)c2c1c(-c1ccccc1)cc(=O)n2CC(=O)NC(C)C the results were PV pol inh 107.0 and PV pol inh intensity 113.0.
`Cc1c(Cl)cccc1NC(=O)Cn1c(=O)nc(-c2ccccc2)c2ccccc21` gave PV pol inh 105.0 and PV pol inh intensity 106.0.
`CCOC(=O)c1cc2c(=O)n3ccccc3nc2n(CC2CCCO2)c1=NC(=O)c1ccccc1F` (stereo unspecified) gave PV pol inh 107.0 and PV pol inh intensity 112.0.
For CC(=O)Nc1ccc(NC(=O)c2cc(-c3ccc4c(c3)OCCO4)on2)cc1 the results were PV pol inh 104.0 and PV pol inh intensity 100.0.
`O=C(c1ccc(CS(=O)c2ccccc2Cl)o1)N1CCN(c2cccc(Cl)c2)CC1` (stereo unspecified) gave PV pol inh 105.0 and PV pol inh intensity 103.0.
Cc1cccc(CNS(=O)(=O)c2ccc3[nH]c(=O)ccc3c2)c1 was read as PV pol inh 112.0 and PV pol inh intensity 100.0.
`Cc1c(Cl)cccc1NC(=O)CCS(=O)(=O)c1ccc2c(c1)CC(=O)N2C` gave PV pol inh 110.0 and PV pol inh intensity 113.0.
CCCn1c(SCc2nc(-c3cc(OC)ccc3OC)no2)nnc1-c1ccc(Cl)cc1 was read as PV pol inh 109.0 and PV pol inh intensity 112.0.
Screening CCOC(=O)c1ccc(NC(=O)CN2Cc3ccccc3C2=O)cc1 returned PV pol inh 110.0 and PV pol inh intensity 112.0.
CCOC(=O)NC1(C(F)(F)F)NC(=O)N(c2ccc(C)c(C)c2)C1=O (stereo unspecified) was read as PV pol inh 105.0 and PV pol inh intensity 101.0.
For CCCSCCCNC(=O)C1CCN(c2nn3cc(-c4ccc(F)cc4)nc3s2)CC1 the results were PV pol inh 101.0 and PV pol inh intensity 103.0.
`O=C(Nc1ccc(F)cc1)C1CCN(S(=O)(=O)c2ccc3c(c2)CCCN3C(=O)C2CCC2)CC1` gave PV pol inh 111.0 and PV pol inh intensity 110.0.
`Cc1cc(C)cc(NS(=O)(=O)c2ccc(-c3cc(C)no3)cc2)c1` gave PV pol inh 114.0 and PV pol inh intensity 111.0.
For CCCC12CN3CC(C)(CN(C1)C3c1cn(CC)c3ccccc13)C2=O (stereo unspecified) the results were PV pol inh 104.0 and PV pol inh intensity 112.0.
`Cc1ccc(-n2ncc3c(NCCc4ccc(S(N)(=O)=O)cc4)ncnc32)cc1` gave PV pol inh 112.0 and PV pol inh intensity 113.0.
For CCC(=O)Nc1ccccc1-c1nc2ccccc2n(C(CC)C(=O)Nc2cccc(C(C)=O)c2)c1=O (stereo unspecified) the results were PV pol inh 110.0 and PV pol inh intensity 98.0.
`CC1CCN(c2ccc(-c3cccc(NS(=O)(=O)c4ccc(Cl)s4)c3)nn2)CC1` gave PV pol inh 109.0 and PV pol inh intensity 110.0.
`COc1ccc(-c2cc3ccc(O)c(CN4CCCC(C)C4)c3oc2=O)cc1OC` (stereo unspecified) gave PV pol inh 103.0 and PV pol inh intensity 131.0.
O=C(CCc1nnc2n(Cc3ccccc3Cl)c(=O)c3ccccc3n12)Nc1ccc(F)cc1 was read as PV pol inh 101.0 and PV pol inh intensity 106.0.
For Cc1cccn2c(=O)c(C(=O)NC(C)c3ccccc3)cnc12 (stereo unspecified) the results were PV pol inh 105.0 and PV pol inh intensity 102.0.
Screening CCCCNS(=O)(=O)c1ccc2nc(-c3cccnc3)cc(C(=O)NCCC)c2c1 returned PV pol inh 107.0 and PV pol inh intensity 111.0.
Cc1ccc(NC(=O)c2cn3c4c(ccc(Cl)c4c2=O)OC(C)C3)cc1C (stereo unspecified) was read as PV pol inh 110.0 and PV pol inh intensity 109.0.
For COc1cccc(CNC(=O)CCc2c(C)c3cc4c(C)coc4c(C)c3oc2=O)c1 the results were PV pol inh 106.0 and PV pol inh intensity 109.0.
For Cc1ccc(C)c(NC(=O)CSC2=Nc3ccccc3N=C(c3ccc(F)cc3)C2)c1 the results were PV pol inh 102.0 and PV pol inh intensity 106.0.
For O=C(CSc1nc2c([nH]c3ccccc32)c(=O)n1-c1ccccc1)N1CCCC1 the results were PV pol inh 110.0 and PV pol inh intensity 109.0.
For CCCCc1ccc(C(=O)N/C(=C\c2ccc(C)cc2)C(=O)NC2CCCCC2)cc1 the results were PV pol inh 97.0 and PV pol inh intensity 98.0.
Screening Cn1cccc1-c1cc2n(n1)CCC(=O)N2CCCC(=O)NCc1ccc(F)cc1 returned PV pol inh 110.0 and PV pol inh intensity 112.0.
For CCOc1ccc(CNC(=O)CCC(=O)N2Cc3ccccc3Oc3ncccc32)cc1 the results were PV pol inh 112.0 and PV pol inh intensity 111.0.
CCOC(=O)c1cccc(NC(=O)Cn2c(=O)c3cccn3c3ccccc32)c1 was read as PV pol inh 116.0 and PV pol inh intensity 113.0.
For Cc1cn2c(=O)cc(COc3cccc(NC(=O)c4ccccc4Cl)c3)nc2s1 the results were PV pol inh 102.0 and PV pol inh intensity 104.0.
COc1ccc(Nc2ncc3c(n2)CCN(Cc2ccc(Br)s2)C3)c(OC)c1 was read as PV pol inh 103.0 and PV pol inh intensity 101.0.
`COc1ccc2nc(NS(=O)(=O)c3ccc(C)cc3)c(Nc3cc(Cl)ccc3OC)nc2c1` gave PV pol inh 90.0 and PV pol inh intensity 244.0.
COc1ccc(Br)cc1C(=O)Nc1cccc2ccc(C)nc12 was read as PV pol inh 106.0 and PV pol inh intensity 107.0.

Next section; it opens with the three that closed the last part.
COc1ccc(Nc2ncc3c(n2)CCN(Cc2ccc(Br)s2)C3)c(OC)c1 was read as PV pol inh 103.0 and PV pol inh intensity 101.0.
`COc1ccc2nc(NS(=O)(=O)c3ccc(C)cc3)c(Nc3cc(Cl)ccc3OC)nc2c1` gave PV pol inh 90.0 and PV pol inh intensity 244.0.
COc1ccc(Br)cc1C(=O)Nc1cccc2ccc(C)nc12 was read as PV pol inh 106.0 and PV pol inh intensity 107.0.
`Cc1ccc(NC(=O)c2oc3ccccc3c2NC(=O)c2ccc(F)c(F)c2)cc1` gave PV pol inh 107.0 and PV pol inh intensity 111.0.
CCN(c1ccccc1)S(=O)(=O)c1ccc(NC(=O)c2cc(=O)c3cc(C)cc(C)c3o2)cc1 was read as PV pol inh 105.0 and PV pol inh intensity 109.0.
For COc1ccc(-c2cn3nc(N4CCCC(C(=O)NCc5ccccc5C)C4)sc3n2)cc1 (stereo unspecified) the results were PV pol inh 107.0 and PV pol inh intensity 113.0.
For O=C(c1cc2ccccc2oc1=O)N1CCN(c2ccc(F)cc2)CC1 the results were PV pol inh 107.0 and PV pol inh intensity 109.0.
For COc1ccc(NC(=O)Cn2ccn(-c3ccccc3)c(=O)c2=O)cc1 the results were PV pol inh 108.0 and PV pol inh intensity 104.0.
Cn1c(SCC(=O)Nc2ccc(F)cc2)nc2c([nH]c3ccccc32)c1=O was read as PV pol inh 102.0 and PV pol inh intensity 97.0.
CCCN1CCN(CCCNC(=O)c2cnn(-c3ccc(F)cc3)c2-n2cccc2)CC1 was read as PV pol inh 110.0 and PV pol inh intensity 111.0.
For Cc1ccc(CNC(=O)c2c(Nc3ccccc3C)sc(C(=O)c3ccc(F)cc3)c2N)cc1 the results were PV pol inh 102.0 and PV pol inh intensity 106.0.
For COc1ccc(-n2c(=O)c3ccccc3n(CC(=O)NCCc3ccccc3)c2=O)c(OC)c1 the results were PV pol inh 106.0 and PV pol inh intensity 106.0.
COc1ccccc1CNC(=O)CCC1N=C2c3ccccc3N=C(SCC(=O)Nc3ccc(N(C)C)cc3)N2C1=O (stereo unspecified) was read as PV pol inh 109.0 and PV pol inh intensity 109.0.
Cc1cccc(NS(=O)(=O)c2nnc(NC(=O)C3CCCCC3)s2)c1 was read as PV pol inh 111.0 and PV pol inh intensity 114.0.
Screening Cc1cc(C)c(NC(=O)Nc2csc3c2CCCC3)c(C)c1 returned PV pol inh 90.0 and PV pol inh intensity 93.0.
Screening Cc1cc(C)n(C(C)CC(=O)Nc2ccc(Cl)cc2C)n1 (stereo unspecified) returned PV pol inh 102.0 and PV pol inh intensity 111.0.
`O=C(Nc1ccc(F)cc1F)c1ccc(-n2cnc3cccnc32)cc1` gave PV pol inh 107.0 and PV pol inh intensity 107.0.
`COc1ccc(-c2nsc(NC(=O)c3oc4cc(C)c(C)cc4c3C)n2)cc1` gave PV pol inh 99.0 and PV pol inh intensity 105.0.
Screening Cc1cc(C)c2nc(N3CCCC(C(=O)NCc4ccccc4F)C3)sc2c1 (stereo unspecified) returned PV pol inh 113.0 and PV pol inh intensity 113.0.
CCOC(=O)C1CCN(CC(=O)Nc2cc(C)c3c(=O)oc4ccccc4c3n2)CC1 was read as PV pol inh 115.0 and PV pol inh intensity 112.0.
Screening CSc1ccc(CNC(=O)CCn2ccc3cc(S(=O)(=O)N4CCCC4)ccc32)cc1 returned PV pol inh 107.0 and PV pol inh intensity 113.0.
`O=S(=O)(Nc1ccc(-c2ccc(N3CCCC3)nn2)cc1)c1cc(F)ccc1F` gave PV pol inh 110.0 and PV pol inh intensity 114.0.
For Cc1cc(C)cc(NC(=O)Cn2c(=O)n(-c3cc(C)cc(C)c3)c(=O)c3oc4ccccc4c32)c1 the results were PV pol inh 104.0 and PV pol inh intensity 105.0.
Cc1nc2scc(C)n2c(=O)c1S(=O)(=O)Nc1cccc(C(F)(F)F)c1 was read as PV pol inh 101.0 and PV pol inh intensity 100.0.
COc1ccc(N2CCN(C(=O)NCc3noc4ccccc34)CC2)cc1 was read as PV pol inh 106.0 and PV pol inh intensity 103.0.
For Cc1cccc(C)c1NC(=O)NCCc1c[nH]c2ccccc12 the results were PV pol inh 103.0 and PV pol inh intensity 106.0.
COc1ccccc1NC(=O)CN1CCCN(S(=O)(=O)c2ccc(Br)cc2)CC1 was read as PV pol inh 103.0 and PV pol inh intensity 107.0.
For O=C(Cn1c(=O)ccc2cc(S(=O)(=O)N3CCCC3)ccc21)NCc1ccc(Cl)cc1 the results were PV pol inh 110.0 and PV pol inh intensity 114.0.
For Cc1ccc(CNC(=O)CS(=O)(=O)Cc2nc(-c3ccccc3C)oc2C)cc1 the results were PV pol inh 102.0 and PV pol inh intensity 100.0.
COc1cccc(NC(=O)CSc2nc(-c3ccccc3)nc3c2Cc2cc(Cl)ccc2O3)c1 was read as PV pol inh 106.0 and PV pol inh intensity 110.0.
`O=C(CC1C(=O)OCCN1Cc1ccccc1)Nc1cccc(C(F)(F)F)c1` (stereo unspecified) gave PV pol inh 98.0 and PV pol inh intensity 99.0.
For CC(CCc1ccccc1)NC(=O)Cn1c(=O)nc(-c2ccccc2)c2cc(Cl)ccc21 (stereo unspecified) the results were PV pol inh 103.0 and PV pol inh intensity 110.0.
O=C(Cn1ncc2c3ccccc3n(Cc3ccc(F)cc3)c2c1=O)NCc1cccs1 was read as PV pol inh 109.0 and PV pol inh intensity 109.0.
Cc1nc2ccn(Cc3cccnc3)c(=O)c2cc1C(=O)N1CCN(c2ccccc2F)CC1 was read as PV pol inh 105.0 and PV pol inh intensity 105.0.
Cc1cc2c(cc1C)NC(CC(=O)Nc1cccc(Cl)c1)C(=O)N2 (stereo unspecified) was read as PV pol inh 105.0 and PV pol inh intensity 106.0.
COc1ccc(Br)cc1Cn1nnc(C(=O)Nc2ccc(C)cc2C)c1N was read as PV pol inh 104.0 and PV pol inh intensity 106.0.
For Cc1cc2c(cc1S(=O)(=O)Nc1ccc(OC(F)(F)F)cc1)OCC(=O)N2 the results were PV pol inh 113.0 and PV pol inh intensity 114.0.
For CCc1ccc(C2C(C(=O)Nc3ccccc3OC)=C(C)Nc3c(C(=O)Nc4ccc(C)cc4)cnn32)cc1 (stereo unspecified) the results were PV pol inh 109.0 and PV pol inh intensity 110.0.
Cc1ccc(NC(=O)N2CCN(Cc3nc4ccc(C)cc4o3)CC2)cc1 was read as PV pol inh 104.0 and PV pol inh intensity 100.0.

Fetched by compound from the list above, two records:
`O=C(CC1C(=O)OCCN1Cc1ccccc1)Nc1cccc(C(F)(F)F)c1` (stereo unspecified) gave PV pol inh 98.0 and PV pol inh intensity 99.0.
For Cc1cc2c(cc1S(=O)(=O)Nc1ccc(OC(F)(F)F)cc1)OCC(=O)N2 the results were PV pol inh 113.0 and PV pol inh intensity 114.0.

Quoted from the entries so far for reference:
For O=C(Cn1c(=O)ccc2cc(S(=O)(=O)N3CCCC3)ccc21)NCc1ccc(Cl)cc1 the results were PV pol inh 110.0 and PV pol inh intensity 114.0.
For Cc1ccc(CNC(=O)CS(=O)(=O)Cc2nc(-c3ccccc3C)oc2C)cc1 the results were PV pol inh 102.0 and PV pol inh intensity 100.0.
COc1cccc(NC(=O)CSc2nc(-c3ccccc3)nc3c2Cc2cc(Cl)ccc2O3)c1 was read as PV pol inh 106.0 and PV pol inh intensity 110.0.

Further structures:
For COc1cccc(C(=O)N2c3ccc(C)cc3C(C)(c3ccccc3)CC2(C)C)c1 (stereo unspecified) the results were PV pol inh 104.0 and PV pol inh intensity 109.0.
`Cc1cn2c(=O)cc(COC(=O)c3ccc(NC(=O)c4ccccc4C)cc3)nc2s1` gave PV pol inh 109.0 and PV pol inh intensity 115.0.
Cc1ccc(Cl)cc1N1CCN(C(=O)c2cccn2-c2nnc(N3CCCCC3)s2)CC1 was read as PV pol inh 105.0 and PV pol inh intensity 110.0.
`COc1cccc(CNC(=O)CCS(=O)(=O)c2ccc3c(c2)oc(=O)n3C)c1` gave PV pol inh 106.0 and PV pol inh intensity 106.0.
`O=C(/C=C/c1cn(-c2ccccc2)nc1-c1ccc(F)cc1)NCc1cccnc1` gave PV pol inh 111.0 and PV pol inh intensity 118.0.
Screening O=C(CCn1c(=O)c2cccn2c2ccc(F)cc21)NCc1ccccc1F returned PV pol inh 105.0 and PV pol inh intensity 108.0.
